Compound activity deposited in PubChem by Broad Institute.
rRNA inh HTS: inhibitors of bacterial rRNA selective over humanized ribosomes | E. coli WT GFP vs humanized-ribosome RFP mutants, fluorescence, 24 h; hits give low values; DMSO median 0, no signal -100 | GFP signal change (wild-type ribosome), % (no concentration beside the values) | 350,000 tested, 1.6% active | AID 720706;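 active = significant combined selectivity score with lowered wild-type GFP, culture density cut under 30%, mutant RFP and density less affected; inactive = any of these conditions unmet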; note: one replicate is shown; some compounds called inactive have numbers as strong as hits
rRNA inh HTS OD600: also measured in rRNA inh HTS; calls as there; OD600 change, %; measured here: OD600 growth;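 optical density of the mix in the first replicate; 0 = DMSO median and -100 = no signal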
rRNA inh HTS RFP: second read-out of rRNA inh HTS, no call of its own (marks repeat the call); RFP signal change, %; measured here: RFP humanized mutant strains;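 first replicate; 0 = DMSO median and -100 = no signal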
The depositor's hits bear a star. Only part of the results is shown; the hit share may differ from the screen's.

Cc1ccc(S(=O)(=O)N(C)C[C@@H]2OCCCC[C@H](C)Oc3ccc(NC(=O)Cc4ccccc4)cc3C(=O)N([C@@H](C)CO)C[C@H]2C)cc1 was read as rRNA inh HTS 0, rRNA inh HTS OD600 7 and rRNA inh HTS RFP -1.7.
`C[C@H](CO)N1C[C@H](C)[C@@H](CN(C)C(=O)C2CCCCC2)Oc2ncc(C#Cc3ccccc3F)cc2C1=O` gave rRNA inh HTS 2, rRNA inh HTS OD600 -6 and rRNA inh HTS RFP 9.6.
For CC(C)CC#Cc1ccc([C@H]2[C@@H](CO)N3C(=O)CN(C(=O)NC4CCCC4)C[C@@H]23)cc1 the results were rRNA inh HTS -20, rRNA inh HTS OD600 -49 and rRNA inh HTS RFP 20.
Screening O=C(CC1CC1)N1CC(=O)N2[C@H](C1)[C@H](c1ccc(/C=C/c3ccccc3)cc1)[C@@H]2CO returned rRNA inh HTS -4, rRNA inh HTS OD600 -11 and rRNA inh HTS RFP -1.8.
For O=C1CN(Cc2ccccc2)C[C@@H]2[C@H](c3ccc(-c4ccccc4F)cc3)[C@H](CO)N12 the results were rRNA inh HTS -3, rRNA inh HTS OD600 -37 and rRNA inh HTS RFP 16.
Screening CN(C)C(=O)[C@@H]1[C@@H](CO)[C@@H]2Cn3c(ccc(/C=C/c4ccccc4)c3=O)[C@@H]2N1CC1CC1 returned rRNA inh HTS 4, rRNA inh HTS OD600 -1 and rRNA inh HTS RFP 4.8.
O=C(C[C@H]1CC[C@H]2[C@@H](COC[C@H](O)CN2S(=O)(=O)c2ccccc2)O1)NCCN1CCCC1 was read as rRNA inh HTS 8, rRNA inh HTS OD600 14 and rRNA inh HTS RFP -2.5.
For CCC(=O)N1CC(=O)N2[C@H](C1)[C@@H](c1ccc(C#CC3CCCC3)cc1)[C@@H]2CO the results were rRNA inh HTS 7, rRNA inh HTS OD600 -14 and rRNA inh HTS RFP -0.4.
For N#C[C@@H]1[C@H](c2ccccc2-c2cccc(F)c2)[C@@H](CO)N1C(=O)c1cccnc1 the results were rRNA inh HTS 4, rRNA inh HTS OD600 0 and rRNA inh HTS RFP 1.2.
For Cc1noc(C)c1NC(=O)N(C)C[C@H]1OCCCC[C@H](C)Oc2ccc(NS(=O)(=O)c3ccc(Cl)cc3)cc2C(=O)N([C@@H](C)CO)C[C@H]1C the results were rRNA inh HTS 2, rRNA inh HTS OD600 8 and rRNA inh HTS RFP -0.6.
For COc1ccc2c3c(n(C)c2c1)[C@@H](CO)N(C(=O)Nc1cccc(F)c1)CC31CN(Cc2nccs2)C1 the results were rRNA inh HTS 5, rRNA inh HTS OD600 3 and rRNA inh HTS RFP -1.8.
For O=C(c1ccccc1F)N1CC(=O)N2[C@H](C1)[C@H](c1ccc(C#Cc3ccccc3)cc1)[C@@H]2CO the results were rRNA inh HTS -16, rRNA inh HTS OD600 -38 and rRNA inh HTS RFP 24.

7 structures from above, sorted by count of non-hydrogen atoms, lowest first.
For N#C[C@@H]1[C@H](c2ccccc2-c2cccc(F)c2)[C@@H](CO)N1C(=O)c1cccnc1 the results were rRNA inh HTS 4, rRNA inh HTS OD600 0 and rRNA inh HTS RFP 1.2.
For O=C1CN(Cc2ccccc2)C[C@@H]2[C@H](c3ccc(-c4ccccc4F)cc3)[C@H](CO)N12 the results were rRNA inh HTS -3, rRNA inh HTS OD600 -37 and rRNA inh HTS RFP 16.
Screening CN(C)C(=O)[C@@H]1[C@@H](CO)[C@@H]2Cn3c(ccc(/C=C/c4ccccc4)c3=O)[C@@H]2N1CC1CC1 returned rRNA inh HTS 4, rRNA inh HTS OD600 -1 and rRNA inh HTS RFP 4.8.
For O=C(c1ccccc1F)N1CC(=O)N2[C@H](C1)[C@H](c1ccc(C#Cc3ccccc3)cc1)[C@@H]2CO the results were rRNA inh HTS -16, rRNA inh HTS OD600 -38 and rRNA inh HTS RFP 24.
`C[C@H](CO)N1C[C@H](C)[C@@H](CN(C)C(=O)C2CCCCC2)Oc2ncc(C#Cc3ccccc3F)cc2C1=O` gave rRNA inh HTS 2, rRNA inh HTS OD600 -6 and rRNA inh HTS RFP 9.6.
Cc1ccc(S(=O)(=O)N(C)C[C@@H]2OCCCC[C@H](C)Oc3ccc(NC(=O)Cc4ccccc4)cc3C(=O)N([C@@H](C)CO)C[C@H]2C)cc1 was read as rRNA inh HTS 0, rRNA inh HTS OD600 7 and rRNA inh HTS RFP -1.7.
For Cc1noc(C)c1NC(=O)N(C)C[C@H]1OCCCC[C@H](C)Oc2ccc(NS(=O)(=O)c3ccc(Cl)cc3)cc2C(=O)N([C@@H](C)CO)C[C@H]1C the results were rRNA inh HTS 2, rRNA inh HTS OD600 8 and rRNA inh HTS RFP -0.6.

Following part:
For N#Cc1cccc(-c2ccc3c(c2)[C@H]2[C@H](CCN2C(=O)CN2CCOCC2)[C@H](CO)N3)c1 the results were rRNA inh HTS 14, rRNA inh HTS OD600 -7 and rRNA inh HTS RFP -5.0.
For COc1ccc(S(=O)(=O)N(C)C[C@@H]2Oc3c(NC(=O)Nc4c(C)noc4C)cccc3C(=O)N([C@H](C)CO)C[C@@H]2C)cc1 the results were rRNA inh HTS 0, rRNA inh HTS OD600 8 and rRNA inh HTS RFP 1.3.
For CCCC(=O)Nc1ccc2c(c1)C(=O)N(C)C[C@@H](OC)[C@H](C)CN(Cc1cncnc1)[C@@H](C)CO2 the results were rRNA inh HTS 2, rRNA inh HTS OD600 7 and rRNA inh HTS RFP -2.6.
For COc1cccc(CNC(=O)C[C@@H]2CC[C@H]3[C@H](COc4ccc(NS(=O)(=O)c5ccccc5F)cc4C(=O)N3C)O2)c1 the results were rRNA inh HTS 1, rRNA inh HTS OD600 -14 and rRNA inh HTS RFP 3.2.
COc1ccc(C[C@@H]2CCc3cnnn3COC[C@H](C)NC2=O)cc1 was read as rRNA inh HTS 4, rRNA inh HTS OD600 0 and rRNA inh HTS RFP 2.1.
Screening CO[C@H]1CN(C)C(=O)c2cc(NC(=O)c3ccc(F)cc3)ccc2OC[C@@H](C)N(Cc2cocn2)C[C@@H]1C returned rRNA inh HTS 1, rRNA inh HTS OD600 -1 and rRNA inh HTS RFP 2.5.
`COc1ccccc1-c1ccc([C@@H]2[C@@H](C#N)N(C(=O)NC3CCCC3)[C@@H]2CO)cc1` gave rRNA inh HTS -3, rRNA inh HTS OD600 -24 and rRNA inh HTS RFP 16.
CCCC#Cc1ccc([C@@H]2[C@H](CO)N3C(=O)CN(C(=O)c4cccc(F)c4)C[C@@H]23)cc1 was read as rRNA inh HTS 0, rRNA inh HTS OD600 -4 and rRNA inh HTS RFP -0.8.
`O=C(C[C@H]1C[C@H]2c3cc(NC(=O)C4CCOCC4)ccc3O[C@H]2[C@@H](CO)O1)NC1CCCCC1` gave rRNA inh HTS 0, rRNA inh HTS OD600 3 and rRNA inh HTS RFP -0.4.
Screening C[C@@H]1CN([C@@H](C)CO)C(=O)c2cccc(NC(=O)Nc3ccc(F)cc3)c2O[C@@H]1CN(C)CC1CCCCC1 returned rRNA inh HTS 3, rRNA inh HTS OD600 1 and rRNA inh HTS RFP -0.1.
C/C=C/c1cnc2c(c1)C(=O)N([C@@H](C)CO)C[C@@H](C)[C@H](CN(C)C(=O)C1CC1)O2 was read as rRNA inh HTS 1, rRNA inh HTS OD600 -3 and rRNA inh HTS RFP -1.4.
Screening COc1ccc(S(=O)(=O)Nc2ccc3c(c2)C(=O)N([C@H](C)CO)C[C@@H](C)[C@@H](CN(C)C(=O)Nc2ccc4c(c2)OCO4)O3)cc1 returned rRNA inh HTS 0, rRNA inh HTS OD600 -5 and rRNA inh HTS RFP -1.5.
Screening CN(C)CC#Cc1ccc([C@H]2[C@H]3CN(C(=O)c4ccccc4)CC(=O)N3[C@H]2CO)cc1 returned rRNA inh HTS 7, rRNA inh HTS OD600 3 and rRNA inh HTS RFP -2.0.
C[C@@H]1CCCCO[C@@H](CN(C)C(=O)Nc2ccccc2)[C@@H](C)CN([C@H](C)CO)C(=O)c2cc(NC(=O)Nc3cccc4ccccc34)ccc2O1 was read as rRNA inh HTS 4, rRNA inh HTS OD600 1 and rRNA inh HTS RFP 0.1.
Screening COc1ccc(S(=O)(=O)Nc2cccc3c2O[C@H](CN(C)Cc2ccc(Cl)c(Cl)c2)[C@H](C)CN([C@@H](C)CO)C3=O)cc1 returned rRNA inh HTS -5, rRNA inh HTS OD600 -9 and rRNA inh HTS RFP 2.0.
Screening C/C=C/c1ccc([C@H]2[C@@H](CO)N(C(=O)C3CCC3)C23CN(C(=O)NC(C)C)C3)cc1 returned rRNA inh HTS -1, rRNA inh HTS OD600 -2 and rRNA inh HTS RFP 3.5.
`CO[C@@H]1CN(C)C(=O)c2ccc(NS(=O)(=O)c3ccc(Oc4ccccc4)cc3)cc2OC[C@@H](C)NC[C@@H]1C` gave rRNA inh HTS -1, rRNA inh HTS OD600 -2 and rRNA inh HTS RFP 3.3.
Screening CN1c2ccc(-c3ccccc3)cc2[C@H]2[C@H](CCN2C(=O)c2ccccn2)[C@@H]1CO returned rRNA inh HTS -7, rRNA inh HTS OD600 -12 and rRNA inh HTS RFP 6.0.
`CNC[C@H]1Oc2ccccc2CC(=O)N(C)C[C@H]1C` gave rRNA inh HTS 1, rRNA inh HTS OD600 5 and rRNA inh HTS RFP -1.0.
For COCC#Cc1ccc([C@H]2[C@H](CO)N3C(=O)CN(C(=O)Nc4cc(F)ccc4F)C[C@@H]23)cc1 the results were rRNA inh HTS 0, rRNA inh HTS OD600 2 and rRNA inh HTS RFP 0.3.
`C[C@@H]1CN([C@@H](C)CO)S(=O)(=O)c2ccc(-c3cccnc3)cc2O[C@@H]1CN(C)C(=O)C1CC1` gave rRNA inh HTS -4, rRNA inh HTS OD600 2 and rRNA inh HTS RFP -0.9.
For CNC[C@@H]1OCCCC[C@H](C)Oc2ccc(NC(=O)C3CCCCC3)cc2C(=O)N([C@H](C)CO)C[C@@H]1C the results were rRNA inh HTS 4, rRNA inh HTS OD600 7 and rRNA inh HTS RFP -0.8.
COc1ccc(S(=O)(=O)N(C)C[C@H]2Oc3ccc(NC(=O)Nc4cccc5ccccc45)cc3C(=O)N([C@H](C)CO)C[C@@H]2C)cc1 was read as rRNA inh HTS -3, rRNA inh HTS OD600 -2 and rRNA inh HTS RFP -2.0.
For CO[C@H]1CN(C)C(=O)c2cc(NC(=O)C3CCCC3)ccc2OC[C@H](C)N(C(C)=O)C[C@H]1C the results were rRNA inh HTS 0, rRNA inh HTS OD600 2 and rRNA inh HTS RFP 0.7.
`O=C(c1ccccn1)N1C[C@H]2[C@@H](c3ccccc31)[C@H](CO)N2C(=O)c1ccccn1` gave rRNA inh HTS 2, rRNA inh HTS OD600 5 and rRNA inh HTS RFP -1.5.
For C[C@@H]1CN([C@@H](C)CO)S(=O)(=O)c2ccc(-c3ccc(F)cc3)cc2O[C@@H]1CN(C)C(=O)Nc1ccc(F)cc1 the results were rRNA inh HTS -4, rRNA inh HTS OD600 -11 and rRNA inh HTS RFP 7.2.
COc1ccc2c3c(n(C)c2c1)[C@H](CO)N(C(=O)Nc1ccc(F)cc1)CC31CN(C)C1 was read as rRNA inh HTS 0, rRNA inh HTS OD600 5 and rRNA inh HTS RFP 2.2.
O=C(Cc1ccccc1)N1CC(=O)N2[C@H](CO)[C@@H](c3ccc(Br)cc3)[C@H]2C1 was read as rRNA inh HTS 2, rRNA inh HTS OD600 -9 and rRNA inh HTS RFP 3.1.
`Cc1ccc(S(=O)(=O)N(C)C[C@@H]2OCCCC[C@H](C)Oc3ccc(NC(=O)NC(C)C)cc3C(=O)N([C@H](C)CO)C[C@@H]2C)cc1` gave rRNA inh HTS -5, rRNA inh HTS OD600 -6 and rRNA inh HTS RFP 2.1.
`CCCNC(=O)N[C@H]1C=C[C@H](CC(=O)NCCc2ccccc2)O[C@H]1CO` gave rRNA inh HTS -1, rRNA inh HTS OD600 3 and rRNA inh HTS RFP -0.3.
`COCC(=O)Nc1ccc2c(c1)OC[C@@H](C)N(Cc1cncnc1)C[C@H](C)[C@@H](OC)CN(C)C2=O` gave rRNA inh HTS 3, rRNA inh HTS OD600 3 and rRNA inh HTS RFP -3.9.
For CCC(=O)Nc1ccc2c(c1)OC[C@@H](C)N(C(=O)C1CC1)C[C@H](C)[C@H](OC)CN(C)C2=O the results were rRNA inh HTS -2, rRNA inh HTS OD600 -2 and rRNA inh HTS RFP 0.3.
For COc1ccc(NC(=O)N(C)C[C@@H]2OCCCC[C@H](C)Oc3ccc(NS(=O)(=O)c4ccc(C)cc4)cc3C(=O)N([C@H](C)CO)C[C@@H]2C)cc1 the results were rRNA inh HTS -1, rRNA inh HTS OD600 -1 and rRNA inh HTS RFP 0.9.
For COc1cccc(S(=O)(=O)N(C)C[C@H]2Oc3cc(C4=CCCCC4)ccc3S(=O)(=O)N([C@H](C)CO)C[C@H]2C)c1 the results were rRNA inh HTS 1, rRNA inh HTS OD600 0 and rRNA inh HTS RFP 0.2.
For CC(C)NC(=O)N(C)C[C@@H]1Oc2ccc(N)cc2CC(=O)N(C)C[C@H]1C the results were rRNA inh HTS 0, rRNA inh HTS OD600 4 and rRNA inh HTS RFP -3.1.
For CCCNC(=O)N1C[C@@H]2[C@H](c3ccccc31)[C@H](CO)N2C(=O)CN1CCOCC1 the results were rRNA inh HTS 6, rRNA inh HTS OD600 4 and rRNA inh HTS RFP 1.7.
`CC(C)NC(=O)Nc1ccc2c(c1)C(=O)N([C@H](C)CO)C[C@@H](C)[C@@H](CN(C)S(=O)(=O)c1cccs1)O2` gave rRNA inh HTS 2, rRNA inh HTS OD600 0 and rRNA inh HTS RFP -1.2.
